PKD1 kinase inh = PKD1 (human) kinase inhibition | Q15139 | PKD1 kinase fluorescence polarization assay | inhibition, %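 (about 10 µM by stock and volumes)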 | 200,000 compounds, 0.056% hits;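 active means inhibition of 50% or more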;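 further: controls were vehicle for no effect and a reference inhibitor for full effect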
Target sequence (Q15139 whole entry, looked up): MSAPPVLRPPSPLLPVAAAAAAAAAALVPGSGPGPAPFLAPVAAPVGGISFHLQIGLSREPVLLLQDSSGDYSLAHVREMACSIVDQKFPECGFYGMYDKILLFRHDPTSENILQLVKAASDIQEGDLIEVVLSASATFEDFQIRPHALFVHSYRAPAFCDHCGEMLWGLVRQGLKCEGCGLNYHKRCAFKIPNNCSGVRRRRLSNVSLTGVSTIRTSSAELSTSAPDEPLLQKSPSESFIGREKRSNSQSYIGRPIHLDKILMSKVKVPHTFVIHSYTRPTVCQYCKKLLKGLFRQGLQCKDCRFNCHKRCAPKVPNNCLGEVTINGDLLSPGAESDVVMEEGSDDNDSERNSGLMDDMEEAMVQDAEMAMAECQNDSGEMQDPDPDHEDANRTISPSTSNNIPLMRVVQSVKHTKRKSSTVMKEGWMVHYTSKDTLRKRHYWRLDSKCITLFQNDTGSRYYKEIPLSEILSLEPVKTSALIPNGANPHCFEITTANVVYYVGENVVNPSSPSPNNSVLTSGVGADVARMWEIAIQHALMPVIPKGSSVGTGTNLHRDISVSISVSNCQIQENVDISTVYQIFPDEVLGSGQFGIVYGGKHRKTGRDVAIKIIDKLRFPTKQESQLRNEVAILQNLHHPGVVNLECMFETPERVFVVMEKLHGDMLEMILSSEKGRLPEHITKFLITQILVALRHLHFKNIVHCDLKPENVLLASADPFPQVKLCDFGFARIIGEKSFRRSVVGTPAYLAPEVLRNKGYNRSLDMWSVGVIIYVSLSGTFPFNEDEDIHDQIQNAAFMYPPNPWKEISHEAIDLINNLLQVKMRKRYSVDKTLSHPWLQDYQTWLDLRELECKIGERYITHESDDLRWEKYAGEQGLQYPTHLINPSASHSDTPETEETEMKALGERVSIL
HSV replic up = increases HSV replication in cells | HSV replication augmentation in cells, fold increase | maximum fold increase | 220,000 compounds, 0.005% hits | AID 1956;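 active means peak rise of 1.5-fold or more in the series; tested in PC3 cells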;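 further: first round at 10 µM; read as green reporter fluorescence; hits show the peak of a series up to 25 µM; 1 = signal of infected wells without compound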
GALR2 agonist = agonists of human galanin receptor 2 (GALR2). O43603. GALR2-expressing cells, agonist activation read-out. activation, %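 (tested at 5 µM)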. 140,000 compounds, 0.48% hits;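 active means above mean plus 3 SD of all compounds, about 5% in these data, not always enough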;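 further: 0% = vehicle buffer wells and 100% = reference agonist at full effect; tested in CHO reporter cells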
Insulin prom inh = TRM-6 insulin promoter activity inhibition | TRM-6 cells (human fetal islet line), insulin promoter-eGFP reporter, imaging; reporter expression induced with tamoxifen | inhibition, % at 2 µM | 130,000 compounds, 0.9% hits | AID 1273;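 active means inhibition above the mean plus 3 SD, with well images judged a real hit on visual review, cut at about 60% in these data, passing the limit was not always enough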
RGS16-Gao HTS = modulates binding between human RGS16 and Galphao | O15492+P09471 | bead-based flow cytometry RGS16-Galphao binding, fluorescence; actives lie on both sides | binding response (% of control), % at 10 µM | 220,000 compounds, 0.38% hits;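 active means below 25% or above 175%, edge rows of some plates excepted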;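 further: Galphao activated by GDP with aluminum fluoride before binding; 100% = wells without compound and 0% = beads without RGS; some results beyond the cut were filed as inactive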
Insulin prom inh cell count = further read-out of Insulin prom inh, marked with its call; normalized cell count, %; measured here: cell count, toxicity; reference of the scale not given here;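 cells exposed to compound for 48 h; stained nuclei by imaging scaled within each plate; lower means fewer cells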
HSV replic up primary fold = second read-out of HSV replic up, no call of its own (marks repeat the call); fold increase; compound at 10 µM; measured here: primary screen fold increase 10 uM; tested in PC3 cells;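 GFP signal in the first replicate; 1 = infected wells without compound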
Starred values were filed as active, the others as inactive; i = inactive; x = no result given.

mol,PKD1 kinase inh,HSV replic up,HSV replic up primary fold,GALR2 agonist,Insulin prom inh,Insulin prom inh cell count,RGS16-Gao HTS
CCOC(=O)Cn1ccc(O)c(Cc2ccc(Cl)cc2Cl)c1=O,3,i,0.81,-1.1,-16,127,102
O=C(Cc1ccc(F)cc1)N(c1ccc(F)cc1)C1C=CS(=O)(=O)C1 (centres undefined),18,i,0.94,-2.1,x,x,110
Cc1ccc(C)c(C(=O)c2c(C)nc3sccn23)c1,0,i,0.88,-1.9,9,116,139
CCN(C(=O)CSc1ncn[nH]1)c1cccc2ccccc12,4,i,0.99,144*,x,x,99
CCN1CCN(c2nc(N)c([N+](=O)[O-])c(Nc3cccc(C)c3)n2)CC1,-4,i,0.76,1.3,-48,59,110
N#CC1=C(SCc2ccccc2)NC(=O)C(C#N)C12CCCC2 (centres undefined),-5,i,0.91,-0.8,-211,70,107
CCCCC(=O)Nc1ccc2c(c1)nc1n2CCN(CCOC)C1,x,i,0.99,x,x,x,104
C#CCn1cc(/C=N/NC(=O)c2cc3ccccc3o2)c2ccccc21,0,i,0.74,2.0,20,121,99
Cn1cc(Cl)c(C(=O)NNC(=S)Nc2cccc(Cl)c2)n1,5,i,1,x,x,x,99
CN1CCN(C2CC(=O)N(Cc3ccc(N4CCCC4=O)cc3)C2=O)CC1 (centres undefined),1,i,0.86,-1.7,-11,110,102
CN(C)c1nc(SCc2ccccc2Cl)nc2c1CCCC2,-2,i,0.67,-0.8,-7,70,102
Cc1ccc(O)c(C2=Nc3ccccc3N=C(c3ccco3)C2)c1,-11,i,0.94,-2.9,-15,152,97
CC(=O)CCc1oc2ccc([N+](=O)[O-])cc2c1-c1ccc(C)o1,-10,i,1.1,x,-17,168,101
O=C(c1nnc(-c2ccccc2)o1)C1CC1,7,i,0.99,x,x,x,102
O=C(COC(=O)CCC1CCCC1)NCc1ccc(Cl)cc1,-4,i,1,x,36,92,102
Cc1ccc2cc(CN(C(=O)c3cccs3)c3ccccc3)c(=O)[nH]c2c1,x,i,0.92,x,x,x,101
O=C1CCC(C(=O)Nc2cccc(S(=O)(=O)N3CCOCC3)c2)N1 (centres undefined),-1,i,0.87,x,0,48,175
COc1ccc(C(=O)N2CCN(c3ccc([N+](=O)[O-])c(NCCc4ccc(OC)c(OC)c4)c3)CC2)cc1,-1,i,0.98,-1.2,45,83,239
CN(C)c1ccc(N=Cc2nc(-c3ccccc3)oc2OC(=O)c2cccc(Cl)c2)cc1,6,i,1.5,-0.6,22,90,95
O=c1cc(CSc2nnnn2-c2ccc(O)cc2)nc2sccn12,-7,i,1.2,x,-37,69,99
COCCNC(=O)C1CCN(S(=O)(=O)c2ccccc2)CC1,-4,i,0.91,-0.6,x,x,90
O=C(C1CSC2(c3ccc(F)cc3)CCC(=O)N12)N1CCCCCC1 (centres undefined),-3,i,0.95,-2.5,x,x,100
Cc1c(N=C/C=C2\N(C)c3ccccc3C2(C)C)c(=O)n(-c2ccccc2)n1C,7,i,0.85,-2.1,x,x,97
O=C(NCc1ccccc1)C1(c2cccc(F)c2)CCCC1,2,i,1.1,x,x,x,102
Cc1cc(C(=O)N2CCCC(C(=O)c3ccc4ccccc4c3)C2)n(C)n1 (centres undefined),-4,i,0.99,x,x,x,102
c1ccc2oc(-c3[nH]ncc3CN3CCSCC3)cc2c1,1,i,0.93,x,x,x,102
CCOC(=O)c1cc(-c2ccccc2)sc1NC(=O)C(C)Sc1nnnn1C (centres undefined),-1,i,0.87,-1.2,-9,113,90
O=C(CN1C2CCCC1CC(NC(=O)c1ccco1)C2)Nc1ccccc1 (centres undefined),0,i,1.1,-0.8,-103,31,100
COc1ccc(/C=C(\NC(=O)/C=C/c2ccco2)C(=O)NCCc2nc3ccccc3[nH]2)cc1,0,i,1,-1.7,-37,64,141
CC1CCN(S(=O)(=O)c2cccc(C(=O)Nc3ccccc3)c2)CC1,2,i,0.97,x,x,x,113

Single entries from the entries so far.
RGS16-Gao HTS with O=C(Cc1ccc(F)cc1)N(c1ccc(F)cc1)C1C=CS(=O)(=O)C1 (centres undefined) = 110
HSV replic up primary fold with N#CC1=C(SCc2ccccc2)NC(=O)C(C#N)C12CCCC2 (centres undefined) = 0.91
HSV replic up primary fold with COc1ccc(C(=O)N2CCN(c3ccc([N+](=O)[O-])c(NCCc4ccc(OC)c(OC)c4)c3)CC2)cc1 = 0.98

Next section:
mol,PKD1 kinase inh,HSV replic up,HSV replic up primary fold,GALR2 agonist,Insulin prom inh,Insulin prom inh cell count,RGS16-Gao HTS
CC(C)c1cc(C(C)C)n2nc(N)nc2n1,x,i,1.1,x,x,x,110
CC(C)(C)C(=O)CSc1nc2ccccc2o1,1,i,1,x,33,94,100
COc1cccc(C2(c3cccc(OC)c3)CC2C(=O)Nc2ccc(F)cc2)c1 (centres undefined),1,i,0.95,-0.9,-19,88,101
Cc1cc2nc3c(nc2cc1C)C(O)=C3O,x,i,0.7,x,x,x,96
Cc1ccc(C2(CCNCc3ccco3)CCOC(C(C)C)C2)cc1 (centres undefined),x,i,0.91,x,x,x,101
COc1cc(/C=N/n2cnc3c(sc4nc(C)cc(C)c43)c2=O)ccc1O,x,i,0.97,x,x,x,106
Cc1ccc(Oc2c(F)c(F)nc(N3CCCC3)c2F)cc1,-2,i,0.93,-0.3,19,193,110
CCOC(=O)N1CCN(C(=O)c2ccc(CS(=O)(=O)c3ccc(OC)cc3)o2)CC1,-8,i,0.99,0.7,14,112,105
Cc1cc(N2CCN(C)CC2)nc2ccc(NC(=O)c3cccnc3Cl)cc12,5,i,0.88,-1.2,32,131,118
O=C(N/N=C/c1ccco1)c1cc(-c2ccccc2)n[nH]1,-2,i,0.99,-2.0,-23,91,98
CN(C)CCCNc1cn[nH]c(=O)c1Cl,-3,x,x,-2.9,-9,81,99
Cn1c(SCC(=O)c2ccccc2)nnc1C1COc2ccccc2O1 (centres undefined),x,i,1.2,x,x,x,102
COc1ccc(C(C)=O)cc1CN1CCCCC1,-5,i,0.94,-2.4,46,98,124
COc1cccc(/C(O)=C2/C(=O)C(=O)N(CCCN3CCOCC3)C2c2ccncc2)c1 (centres undefined),0,i,0.95,-1.8,-192,93,106
CCOc1ccc(N(CC(=O)N2CCCC2)S(=O)(=O)c2c(C)noc2C)cc1,13,i,0.9,-0.7,x,x,110
CCc1ccc(-c2nn(-c3ccccc3)cc2CSC(=N)N)cc1,6,i,0.56,5.3*,3,156,102
Cc1nn(Cc2c(Cl)cccc2Cl)c(C)c1NC(=O)c1sc2ccccc2c1Cl,-10,i,1.1,12*,24,88,95
Oc1ccc(/C=N/Nc2ccc(C(F)(F)F)cn2)cc1O,10,i,0.8,x,x,x,100
Cc1nc(S(=O)(=O)Nc2ccccc2C(=O)NCC2CC2)cn1C,x,i,1.1,x,x,x,96
Cc1cc(Cl)cc(Cl)c1OCC(=O)NCc1ccco1,-7,i,1,-2.0,36,110,115
Oc1cccc2ccc(/C=C/c3cccs3)nc12,-3,i,0.97,-2.3,43,88,101
CSc1cccc(NCc2ccc([N+](=O)[O-])cc2)c1,-1,i,0.93,x,39,47,103
COc1cccc(NC(=O)N(CCN(C)C)C(C)c2cccnc2)c1 (centres undefined),x,i,0.89,x,x,x,97
COc1cccc(N2CCN(C(=O)C3C4C=CC5(CN(Cc6ccccc6Cl)C(=O)C35)O4)CC2)c1 (centres undefined),-18,i,0.91,-0.6,3,104,102
CCCN1CCC(NC(=O)Nc2cccc3ccccc23)CC1,x,i,0.82,x,x,x,109
O=C(N/N=C/c1ccccn1)c1ccco1,-2,i,1,-1.8,x,x,101
Cc1nc(=O)c(-c2ccccc2)c(C)n1-c1ccc(Br)cc1,x,i,1.1,x,x,x,86
O=C(C1CCCN(S(=O)(=O)c2cnc[nH]2)C1)N1CCN(c2ccc(Cl)cc2)CC1 (centres undefined),-13,i,0.89,-0.6,x,x,98
Cc1nc(N2CCCCC2)c2sc(=S)n(C)c2n1,-4,i,0.97,-1.3,x,x,106
O=C(c1cccnc1NCc1ccccc1)N1CCOCC1,-7,i,0.99,0.1,-26,123,95
O=C(N/C(=C\c1ccc([N+](=O)[O-])cc1)C(=O)N1CCCCC1)c1ccccc1,7,i,0.91,x,-23,107,98
CC(C)CCn1nnnc1CN1CCN(c2ccc(F)cc2)CC1,2,i,0.93,x,-7,127,107
CCOC(=O)CNC(=O)N1CCCC(C(=O)c2cccc(Cl)c2)C1 (centres undefined),-5,i,1,x,13,151,99
Cc1ccccc1C(=O)NNC(=O)/C=C/c1ccccc1,-3,i,0.97,x,6,91,104
N#CC1=C(N)NC(SCC(=O)c2ccc(Br)cc2)=C(C#N)C12CCCCC2,-7,i,0.83,-1.2,-44,82,253
COc1ccc(C(=O)NNC(=O)CN2CCC(n3nnc4cc(C)ccc43)CC2)cc1,-5,i,0.83,-1.8,27,155,100
CCCN(Cc1cc2cc(OC)ccc2[nH]c1=O)C(=O)c1ccncc1,1,i,0.82,-2.4,x,x,104
O=C(Nc1cn(-c2ccccc2)nc1-c1ccccc1)c1ccccc1,-2,i,0.92,-0.5,4,85,32
Cc1ccc(-c2cc(C(=O)O)n(-c3ccc(S(N)(=O)=O)cc3)n2)cc1,-2,i,1,x,x,x,101
COc1ccc(Cl)cc1NC(=O)COC(=O)c1cc(NS(=O)(=O)c2cccs2)ccc1O,4,i,0.93,0.0,x,x,110
CN1CCN(CCCNC(=S)Nc2ccc(F)c(Cl)c2)CC1,2,i,0.92,x,x,x,101
COc1ccc(/C=N/OC/C(O)=C(\C#N)c2nc3ccccc3[nH]2)cc1OC,-12,i,0.99,-2.2,x,x,97
C=CCOC(=O)C1=C[C@H](c2cn(C(C)=O)c3ccccc23)[C@@H](CCCO)[C@H](OCC)O1,-10,i,0.96,x,x,x,100
CC(C)OC(=O)C1C(=O)CC(C)(O)C(C(=O)OC(C)C)C1c1cccnc1 (centres undefined),-4,i,1,-2.5,-14,115,100
Cc1cc(/C=C2/SC(=S)N(c3cccc(Cl)c3)C2=O)c(C)n1-c1cccnc1,-22,i,1.2,-2.1,-81,126,x
CN(C)CCCN(C(=O)COc1ccccc1)c1nc2ccc(Cl)cc2s1,-4,i,0.91,x,-22,98,98
O=S1(=O)N=C(N(CCO)/N=C/C=C/c2ccccc2)c2ccccc21,-14,i,0.78,-0.3,33,112,105
Cc1nn2c(NC(C)C)c3c(nc2c1-c1ccccc1)CCC3,x,i,0.87,x,x,x,94
Cc1nc2c(-c3ccc(F)cc3)c(C)nn2c(N2CCOCC2)c1C,-12,i,0.96,1.3,x,x,125
COc1ccc(N2C(=O)C3CCCN3C2c2ccccc2F)cc1 (centres undefined),-8,i,1.4,-2.4,x,x,102

An excerpt from above in order of their number in GALR2 agonist, lowest first:
| canonical_smiles | GALR2 agonist |
| --- | --- |
| O=C(N/N=C/c1ccccn1)c1ccco1 | -1.8 |
| COCCNC(=O)C1CCN(S(=O)(=O)c2ccccc2)CC1 | -0.6 |
| COc1ccc(Cl)cc1NC(=O)COC(=O)c1cc(NS(=O)(=O)c2cccs2)ccc1O | 0.0 |

Later entries
mol,PKD1 kinase inh,HSV replic up,HSV replic up primary fold,GALR2 agonist,Insulin prom inh,Insulin prom inh cell count,RGS16-Gao HTS
CCS(=O)(=O)N1CCN(c2ccccn2)CC1,0,i,0.89,-2.6,-33,92,87
O=C(COc1ccc(Cl)cc1)Nc1ccccc1N1CCOCC1,4,i,0.94,-2.8,x,x,96
Cn1c(CNC(=O)c2ccco2)nnc1SCC(=O)Nc1cccc(F)c1,-8,i,0.94,x,x,x,102
Cc1cccnc1NC(=O)Nc1cccc(C(F)(F)F)c1,-9,i,0.68,-2.5,-233,34,104
CN(C)C(=O)COC(=O)c1ccccc1OCC(=O)Nc1ccc(SC(F)F)cc1,10,i,0.92,-0.9,7,126,112
c1cc2c(cc1-c1cnc3n1CCC3)OCCO2,5,i,0.86,-1.2,50,66,102
CCOC(=O)Cc1c(Sc2ccccc2)c2cc(C)ccc2n1C,-4,i,0.9,-0.5,x,x,100
CC(=O)NC12CC3CC(CC(CC(=O)O)(C3)C1)C2,0,i,0.92,-1.1,x,x,99
COc1ccc(C=Nc2cccc3c(=O)[nH][nH]c(=O)c23)c2ccccc12,-4,i,0.47,0.1,-3,127,101
COc1ccc(NC(=O)c2ccc(COc3ccc(C)cc3)o2)cc1,-3,i,1.2,x,x,x,42
